# High-throughput results deposited in PubChem BioAssay by National Center for Advancing Translational Sciences (NCATS).
# VACV mCherry inh = qHTS for Stage-Specific Inhibitors of Vaccinia Orthopoxvirus: mCherry Reporter Primary qHTS; Vaccinia virus mCherry reporter infection, fluorescence; about a quarter of the inactives have no number; Potency, µM (highest dose often 36.5 µM), for inactives: top-dose activity change, negative = inhibition, most hits filed as inhibitors; 310,000 compounds, 0.63% hits; active = well fitted inhibition curve with a large enough effect; inconclusive = small, poorly fitted or top-dose-only effect; inactive = no such curve, though single readings can be large or run the other way; tested in A549 cells; further: nearly all actives have a fitted effect of over 35% in size; inactives centre near -10
# VACV Venus inh = qHTS for Stage-Specific Inhibitors of Vaccinia Orthopoxvirus: Venus Reporter Primary qHTS | Vaccinia virus Venus reporter expression, fluorescence | AID 720580, 2013 | Potency, µM (doses to about 36.5 µM), inactives show top-dose activity change, negative = inhibition, hits mostly inhibitors | 330,000 compounds, 0.46% hits; active means well fitted inhibition curve with a large enough effect; inconclusive means small, poorly fitted or top-dose-only effect; inactive means no such curve, though single readings can be large or run the other way; tested in A549 cells; further: nearly all actives have a fitted effect of over 30% in size; inactives centre near -10
# Numbers without * were called inactive; i = inactive; u = inconclusive; x = no result given; & = joins results of further samples; [ ] = another dose, or the depositor's remark. On the % scale 0 is the no-effect control and ±100 the full control effect; potency means the concentration at half of the fitted maximal effect.
SMILES,VACV mCherry inh,VACV Venus inh
O=C(/C=C/c1ccccc1)NCCS(=O)(=O)N1CCN(c2ccccc2F)CC1,-24.0%,-18.1%
Cc1cc(C)n2nc(SCC(N)=O)nc2n1,-25.7%,-12.1%
CC(C)c1ccc(NC(=O)[C@H]2O[C@@H]3OC(C)(C)O[C@@H]3[C@H]3OC(C)(C)O[C@H]32)cc1,-22.7%,1.0%
COc1ccc(OC)c(CN2CCN(C(=O)c3cccc4ccccc34)CC2)c1,-7.9%,-4.8%
NC(=O)c1ccc(NC(=O)COC(=O)CC2CC3CCC2C3)cc1 (stereo not drawn),i,4.9%
CC(C)c1cccc(OCCN2CCCC2)c1,-25.4%,-5.0%
Cc1cc(SCC(=O)OCC(=O)NCc2ccc3c(c2)OCO3)c(C)cc1Br,i,-8.5%
C[C@@H]1CN(S(=O)C(C)(C)C)[C@H](CCO)/C1=C\CCO (stereo partly drawn),-6.4%,6.5%
CN(CC(=O)N1CCc2ccccc21)S(=O)(=O)c1ccc(Cl)cc1,-5.1%,-12.8%
O=C1c2cccc3c([N+](=O)[O-])ccc(c23)C(=O)N1Cc1cccnc1,-16.5%,10.5%
CCCCNC(=O)c1nc(C2CCN(S(=O)(=O)c3cccc(C(F)(F)F)c3)CC2)oc1-c1ccccc1,i,-6.7%
CCOc1ccccc1NC(=O)CSc1nnc(CNC(=O)c2ccco2)o1,-3.9%,4.0%
CC(=O)c1ccc(NC(=O)C(C)OC(=O)c2ccc(NS(=O)(=O)c3ccc4[nH]c(=O)[nH]c4c3)cc2)cc1 (stereo not drawn),-11.8%,-1.8%
COc1ccc(CNC(=O)C(CCSC)NS(=O)(=O)c2ccc3c(c2)oc(=O)n3C)cc1 (stereo not drawn),i,-6.2%
CCOC(=O)C1=C(c2ccccc2)N=c2s/c(=C\c3ccco3)c(=O)n2C1c1cccs1 (stereo not drawn),i,-4.1%
Cc1c(NP(=S)(C(C)(C)C)C(C)(C)C)c(=O)n(-c2ccccc2)n1C,-0.3%,-6.6%
CN(C(=O)CSc1nc(-c2ccc(F)cc2)cs1)C1CCS(=O)(=O)C1 (stereo not drawn),-14.4%,0.0%
COCc1c(C(=O)NCC(c2ccco2)N2CCCC2)oc2ccccc12 (stereo not drawn),-26.2%,-7.7%
CC1(C)C(=O)OC(/C=C\c2cccc([N+](=O)[O-])c2)C(C)(C)C1=O (stereo not drawn),-13.7%,-3.9%
CCOC(=O)C1=C(C)N(C)C(=O)NC1c1cccc2ccccc12 (stereo not drawn),-20.7%,-12.6%
CCS(=O)(=O)N1Cc2ccccc2CC1C(=O)N(C)Cc1ccc(OC)cc1OC (stereo not drawn),i,-15.3%
COC(=O)c1ccc(OCCOc2ccc(C(=O)OC)cc2)cc1,i,-15.2%
CC1CCN(C(=O)C2CCN(CC(C)c3ccccc3)CC2)CC1 (stereo not drawn),x,-10.4%
O=C(COC(=O)c1cc2c(s1)CCCCC2)NC1CCS(=O)(=O)C1 (stereo not drawn),i,-12.2%
O=C(CSc1ccc2nc(-c3ccccc3)cn2n1)Nc1cccc(F)c1,-4.7%,-6.7%
# Later entries.
SMILES,VACV mCherry inh,VACV Venus inh
CCn1nc(C)c(CN2CCN(Cc3cccc(OC)c3)C(CCO)C2)c1C (stereo not drawn),i,-10.3%
CC(C)(C#N)Nc1ccccc1,0.4%,4.2%
CCc1ccc(NC(=O)c2nnn(Cc3cccc(C(F)(F)F)c3)c2N)cc1,-13.4%,1.2%
Cc1ccc(CN2C(=O)c3ccccc3Sc3ccc(C(=O)N4CCOCC4)cc32)cc1,i,-11.2%
CSc1nnc(-c2ccc(F)cc2)o1,i,-15.5%
CCCCSc1nn[nH]n1,-13.5%,-12.9%
Cc1ccc(C)c(NC(=O)CSc2nc(=O)n(CCN(C)C)c3c2CCC3)c1,-15.7%[7.34 µM],-10.5%[7.34 µM]
Cc1cc(-c2ccc(N3CCOCC3)cc2)nc2ccccc12,-9.0%,-15.5%
COc1ccc(CCNC(=O)COC(=O)Cc2c[nH]c3ccccc23)cc1OC,-12.5%,-0.4%
COc1cccc(C(=O)Nc2ccc(N(C)C)cc2)c1OC,-8.6%,-7.4%
O=C(/C=C/c1ccccc1)NCCc1ccc2c(c1)OCCO2,-10.6%,-10.5%
Cc1cc(C2=NNC(=NCCc3ccccc3)SC2)c(C)n1CC1CCCO1 (stereo not drawn),4.7%,-6.5%
COc1ccc(S(=O)(=O)NCc2ccccn2)cc1Cl,-14.3%,-6.8%
CC(C)(C)C(=O)Cn1c(=O)n(-c2ccc(Cl)cc2)c(=O)c2c3c(sc21)CCCC3,-3.6%,-2.0%
CC(=O)O[C@@]12CO[C@@H]1C[C@H](OC1OCC(O)C(O)C1O)[C@@]1(C)C(=O)[C@H](O)C3=C(C)[C@@H](OC(=O)[C@H](O)[C@@H](NC(=O)c4ccccc4)c4ccccc4)C[C@@](O)([C@@H](OC(=O)c4ccccc4)C12)C3(C)C (stereo partly drawn),-22.9%,-15.0%
CCOC(=O)c1ccc(NC(=O)CSc2nc3ncccc3[nH]2)cc1,i,-8.8%
CN(C(=O)c1cccc(NC(=O)Cc2ccc(NC(=O)C3CCN(C(=O)CCc4ccccc4)CC3)cc2)c1)C1CCCCC1,-19.7%,u
CN(CC(=O)Nc1ccc(Cl)c(Cl)c1)C(=O)/C=C/c1ccc(F)cc1,-15.6%,-7.9%
Cc1ccc(S(=O)(=O)N2CCC(C(=O)OCC(=O)N(Cc3ccccc3)C(C)(C)C)CC2)cc1C,-12.9%,u
Cc1nnc(SCc2ccc([N+](=O)[O-])cc2)[nH]c1=O,2.1%,-0.1%
Cc1ccc(N=Cc2c(O)ccc3ccccc23)cc1F,-8.5%,-23.0%
NC(=O)CNC(=O)[C@@H]1CC2(CC(c3ccccc3)=NO2)CN1C(=O)c1ccc(Br)cc1 (stereo partly drawn),-10.4%,-9.3%
NNC(=O)c1oc2nc(-c3ccco3)cc(-c3ccco3)c2c1N,u,4.9%
Cc1cc(C)c2nc(N(CCCN(C)C)C(=O)c3ccc4c(c3)OCCO4)sc2c1,-22.2%,-20.5%
CCOC(=O)C1CN(S(=O)(=O)c2ccc(Cl)cc2)c2cc(S(=O)(=O)CC)ccc2O1 (stereo not drawn),i,-11.0%

# Among those listed so far, 8 have fluorine.
SMILES,VACV mCherry inh,VACV Venus inh
O=C(/C=C/c1ccccc1)NCCS(=O)(=O)N1CCN(c2ccccc2F)CC1,-24.0%,-18.1%
CCCCNC(=O)c1nc(C2CCN(S(=O)(=O)c3cccc(C(F)(F)F)c3)CC2)oc1-c1ccccc1,i,-6.7%
CN(C(=O)CSc1nc(-c2ccc(F)cc2)cs1)C1CCS(=O)(=O)C1 (stereo not drawn),-14.4%,0.0%
O=C(CSc1ccc2nc(-c3ccccc3)cn2n1)Nc1cccc(F)c1,-4.7%,-6.7%
CCc1ccc(NC(=O)c2nnn(Cc3cccc(C(F)(F)F)c3)c2N)cc1,-13.4%,1.2%
CSc1nnc(-c2ccc(F)cc2)o1,i,-15.5%
CN(CC(=O)Nc1ccc(Cl)c(Cl)c1)C(=O)/C=C/c1ccc(F)cc1,-15.6%,-7.9%
Cc1ccc(N=Cc2c(O)ccc3ccccc23)cc1F,-8.5%,-23.0%

# Next results:
SMILES,VACV mCherry inh,VACV Venus inh
Cc1ccc(CCNC(=O)C2CCN(S(=O)(=O)c3cccc4cccnc34)CC2)cc1,-12.7%,-6.1%
COc1ccc(Cl)cc1NC(=O)Cn1c(=O)c(-c2ccccc2NC(C)=O)nc2ccccc21,-13.6%,-10.0%
C=CCn1c(SCc2c(C)noc2C)nc2sc3c(c2c1=O)CCC(C)C3 (stereo not drawn),u,u
CC(C)(C)OC(=O)N1CCC(NC(=O)c2nc[nH]c2C(=O)NCC(=O)OCc2ccccc2)CC1,-27.0%,-18.6%
CCCCCn1c(=O)[nH]c2cc(C(=O)Nc3ccc(OC)c(OC)c3)ccc2c1=O,8.3%,8.5%
Cc1ccc(-c2noc(CN3CCC(C(N)=O)CC3)n2)cc1,-12.5%,-7.4%
Cc1cccc(NS(=O)(=O)c2ccc(C)c(C(=O)N(C)C3CCN(C)CC3)c2)c1,-4.2%,-12.3%
CCCC(=O)Nc1cc(C)c(NC(=O)c2ccco2)cn1,i,-13.1%
Cc1ccc(-n2ncc3c2CCCC3NC(=O)CCCN2CCCCC2=O)cc1C (stereo not drawn),-6.8%,-22.0%
CNC(=S)N1CCc2ccccc2C1,i,-7.6%
Cc1ccc(NC(c2nnc(-c3ccccc3)o2)c2ccccc2F)c(Cl)c1 (stereo not drawn),-4.3%,-7.2%
CCOc1ccc(-c2csc3ncnc(Nc4cccc(O)c4)c23)cc1,-20.9%,-4.3%
Cc1cc2c(cc3c(SCC(=O)Nc4cccc(Cl)c4C)nnc(C)n32)o1,-6.4%,-10.6%
COc1cc(/C=C2\C(=N)N3N=C(S(C)(=O)=O)SC3=NC2=O)ccc1OCCOc1ccccc1C,i,-4.2%
COc1ccc(/C=N/n2c(SC)nnc2-c2ccccc2)cc1C,-15.9%,u
CCCCN(C)C(=O)C1CCCN(S(=O)(=O)c2ccc3c(c2)oc(=O)n3C)C1 (stereo not drawn),-7.9%,-16.4%
O=C(c1ccc2nc(N3CCOCC3)sc2c1)N1CCCC1,-16.1%,-3.0%
Cc1ccc(Cc2c(-c3ccccc3)nc3c4ccccc4ccn23)cc1,-3.0%,-3.9%
C[C@@H]1CN([C@H](C)CO)C(=O)c2cc(-c3ccc(C(=O)N(C)C)cc3)cnc2O[C@@H]1CN(C)C(=O)c1cccnc1,-19.6%,-13.5%
c1coc(C2OCC3(CO2)COC(c2ccco2)OC3)c1 (stereo not drawn),i,-5.1%
COCc1[nH]nc2c1C1(C(=O)N(C)c3ccccc31)C(C#N)=C(N)O2 (stereo not drawn),i,u
CCOC(=O)c1c(S(=O)(=O)NCC(=O)Nc2cc(C)ccn2)c(C)n(C)c1C,i,-18.4%
S=c1[nH]cc(-c2ccc(Cl)cc2)n1-c1ccccc1,-13.2%,-4.5%
Cc1ccc(CN(C)C[C@@H]2OCc3cnnn3CCCC(=O)N([C@H](C)CO)C[C@H]2C)cc1,-9.0%,-22.8%
COc1ccc(OC)c(CN2CCN(S(=O)(=O)c3ccccc3)CC2)c1,-9.5%&-11.7%,1.1%&-3.6%
# (list continues)
SMILES,VACV mCherry inh,VACV Venus inh
O=C(C1CCCN(c2nnc(-n3cccc3)s2)C1)N1CCC2(CC1)OCCO2 (stereo not drawn),x,-11.9%
CC(=O)c1ccc(NC(=O)c2ccc(CN3C(=O)CCn4nc(C)cc43)cc2)cc1,-2.5%,-3.4%
CN(C)C(=O)c1ccc(NC(=O)c2cc(-c3ccco3)nc3ccccc23)cc1,-13.5%,-9.1%
COc1ccc(CCNC(=O)C(=O)NCC(c2cccs2)S(=O)(=O)c2ccccc2)cc1 (stereo not drawn),u,u
CC1(C)N=C(N)N=C(N)N1c1ccc(CCCCc2ccccc2)cc1,3.16µM*,u
Cc1ccsc1C1NC(=O)c2ccccc2N1 (stereo not drawn),x,u
Cc1ccc(CNc2ccc3c(c2)ncn3C(C)(C)C)cc1,u,-15.8%
O=S1(=O)OCCC(c2ccccc2)N1Cc1ccccc1 (stereo not drawn),-12.5%,-14.9%
O=C(O)C1CCN(C(=O)c2ccccc2C(=O)N2CCC(C(=O)O)CC2)CC1,i,-15.4%
C#CCOCCOCCOCCNc1nc(N2CCN(C(=O)[C@H]([C@@H](C)O)n3cc(CCCCN)nn3)CC2)nc(N2CCN(C(=O)[C@H](CCCCN)n3cc(CCCC)nn3)CC2)n1,i,-15.6%
CC(=O)C1=C(O)C(=O)N(CCN2CCOCC2)C1c1ccc(N(C)C)cc1 (stereo not drawn),-23.4%,-1.3%
COc1cccc(C(=O)NCC(=O)OCC(=O)Nc2cc(OC)c([N+](=O)[O-])cc2C)c1,-15.5%,-13.1%
Cc1nc(C)n(C(C)CNS(=O)(=O)c2ccc(Cl)cc2)n1 (stereo not drawn),i,-6.1%
O=C(NCc1ccccc1)C1c2ccccc2OCC(=O)N1CC(F)(F)F (stereo not drawn),i,-0.1%
CC1CCCCC1NC(=S)Nc1cccc(S(=O)(=O)N(C)C)c1 (stereo not drawn),-3.1%,-0.5%
Cc1ccc(NC(=O)CSc2nc3c(c(=O)[nH]2)CCC3)cc1Cl,0.9%,-5.8%
CCOC(=O)c1ccc2c(c1)C(=O)N(C1CCCCC1)C2=O,-11.1%,-1.3%
CCCCCC(=O)N1C[C@H](n2cc(COC(=O)c3ccccc3)nn2)[C@@H](O)C[C@@H]1c1ccc(C)cc1,u,u
CCCCNC(=O)C(C)N(CCN(C)C)C(=O)CCCN1C(=O)NC(c2ccc(Cl)cc2)C(C(=O)OCc2ccccc2)=C1C (stereo not drawn),-21.6%,u
COc1ccc2c(c1)[C@@]13CCC=C[C@H]1[C@@H](C2)NCC3,i,-11.1%
COCCNC(=O)c1cc(-c2ccc(-c3ccccc3)cc2)nc2ccccc12,u,-18.7%
O=C(CN1C(=O)C2(OCCCO2)c2ccccc21)NCCc1ccccc1,-15.0%,-10.9%
O=C(OCC(=O)N1CCCc2ccccc21)c1ccc(S(=O)(=O)C(F)F)cc1,-7.8%,-4.6%
Nc1nc(NCCOCCO)nc(N2CCCCCC2)c1[N+](=O)[O-],-5.4%,-4.2%
COC(=O)c1ccc(SC)cn1,-3.2%,3.9%
CCN(CC)S(=O)(=O)c1ccc(N(C)C)c(NC(=O)CC(NC(C)=O)c2ccccc2)c1 (stereo not drawn),-11.0%,4.6%
COc1cc(NC(=O)c2oc3ccccc3c2C)ccc1NC(=O)c1ccco1,-11.7%,-16.0%
